Bioassay records: PubChem BioAssay, ICCB-Longwood Screening Facility, Harvard Medical School
GIV-Gai inh – GIV-Galpha-i interaction inhibition. AID 1224905. P08753. Galpha-i3/FITC-GIV peptide fluorescence polarization, 90 min; hits give low values; scaled: aluminum fluoride 0%, vehicle 100%. 210,000 tested, 0.42% active. percent of control (FP), % (no concentration beside the values);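 active means replicate mean at 85% of control or lower, very high polarization wells dropped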;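 further: wells of about 15 µL received 100 nL stock; the first replicate is given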
Target sequence (P08753 whole entry, looked up): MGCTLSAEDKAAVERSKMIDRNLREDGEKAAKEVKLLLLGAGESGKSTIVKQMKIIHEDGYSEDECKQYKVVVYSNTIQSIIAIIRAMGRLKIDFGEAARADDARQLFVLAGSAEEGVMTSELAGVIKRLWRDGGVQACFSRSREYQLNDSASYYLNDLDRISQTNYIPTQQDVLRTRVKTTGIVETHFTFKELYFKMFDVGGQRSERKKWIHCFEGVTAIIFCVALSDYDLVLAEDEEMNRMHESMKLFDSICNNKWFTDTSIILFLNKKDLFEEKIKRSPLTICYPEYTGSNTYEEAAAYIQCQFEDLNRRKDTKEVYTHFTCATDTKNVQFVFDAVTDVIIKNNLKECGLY
Numbers without * were called inactive. Only part of the results is shown. The share of hits here may be higher or lower than overall.

Sample of the layout:
Structure,GIV-Gai inh
Cc1c(Cc2cc3c4c(c2C)C2C=CCC2CN4CC2CC=CC32)cc2c3c1C1C=CCC1CN3CC1CC=CC21 (configuration not stated),120.6
CCSc1nnc(-c2nn(C)c3c2CN(S(=O)(=O)c2cc(C)cc(C)c2)CC3)n1CC,104.8
CCOc1ccccc1NC(=O)C1CCCN(S(=O)(=O)Cc2ccccc2Cl)C1 (configuration not stated),99.9
Cc1ccc(-n2c3c(cc(C(=O)N4CCOCC4)c2=O)C(=O)CC(C)(C)C3)cc1,110.8
CCCOc1ccc(CN2CCCC2c2cc(C)on2)cc1 (configuration not stated),99.7

The list itself, from the start:
Structure,GIV-Gai inh
Cc1c(Cc2cc3c4c(c2C)C2C=CCC2CN4CC2CC=CC32)cc2c3c1C1C=CCC1CN3CC1CC=CC21 (configuration not stated),120.6
CCSc1nnc(-c2nn(C)c3c2CN(S(=O)(=O)c2cc(C)cc(C)c2)CC3)n1CC,104.8
CCOc1ccccc1NC(=O)C1CCCN(S(=O)(=O)Cc2ccccc2Cl)C1 (configuration not stated),99.9
Cc1ccc(-n2c3c(cc(C(=O)N4CCOCC4)c2=O)C(=O)CC(C)(C)C3)cc1,110.8
CCCOc1ccc(CN2CCCC2c2cc(C)on2)cc1 (configuration not stated),99.7
COc1ccc(-n2nnc3c(N4CCN(S(C)(=O)=O)CC4)ncnc32)cc1,102.4
CCOc1ccc(N2C(=O)CSC2c2ccccc2[N+](=O)[O-])cc1 (configuration not stated),101.0
N#CC1=C(N)n2c(s/c(=C\c3cccc(Cl)c3Cl)c2=O)=C(C#N)C1c1cccc(Cl)c1Cl (configuration not stated),111.3
O=C(CSc1nc2ccccc2s1)Nc1ccc2nc(SCC(=O)N3CCOCC3)sc2c1,104.4
Cc1ccc(CNC(=O)CSc2nc3ccccc3c(=O)n2CC2CCC(C(=O)NCc3ccco3)CC2)cc1 (configuration not stated),111.2
COc1ccccc1CNC(=O)CSc1nc2ccccc2n1S(=O)(=O)c1ccc(Br)cc1,103.4
CCc1ccc(CNS(=O)(=O)c2cc(-c3nc(C(C)(C)C)cs3)cs2)cc1,105.7
CCc1ccc(S(=O)(=O)c2cnc(N3CCC(C(N)=O)(N4CCCCC4)CC3)nc2N)cc1,100.4
CC1(C)OC2OC(C(=O)Nc3cccc4ccccc34)C3OC(C)(C)OC3C2O1 (configuration not stated),96.4
CCS(=O)(=O)c1nc2ccc(NS(=O)(=O)c3ccccc3F)cc2s1,105.2
COc1ccc(C(=O)NCC(=O)N/N=C/c2ccc([N+](=O)[O-])s2)cc1OC,105.7
Cc1cc(C)c2c(n1)sc1c(=O)n(CC(=O)Nc3cc(F)ccc3C)cnc12,102.6
CCN(CC)C(=O)Oc1cccc2c1C(=O)c1cccc(OC(=O)N(CC)CC)c1C2=O,113.2
O=C(Nc1cc(C(=O)N2CCN(c3ccc(F)cc3)CC2)ccc1N1CC2CC(C1)c1cccc(=O)n1C2)c1ccncc1 (configuration not stated),109.9
O=C(Nc1ccc2c(c1)OCO2)Nc1ccc(F)c(-c2nnc(-c3ccccc3)o2)c1,106.6
COc1ccc(CCNC(=O)c2ccc3c(=O)n(CCCN4CCCC4=O)c(=S)[nH]c3c2)cc1OC,110.3
COc1ccccc1N1CCN(C(=O)c2cnn3c(C)c(Cc4ccccc4Cl)c(C)nc23)CC1,106.3
Cc1nn(C(C)C(=O)NCCc2c[nH]c3ccccc23)c(=O)c2c(C)n(-c3ccccc3)nc12 (configuration not stated),104.1
COc1cc2c(cc1OC)C(Nc1ccc(F)c(F)c1)=NC(C)(C)C2,102.2
CCS(=O)(=O)N1CCN(c2ncnc3c2nnn3-c2ccccc2)CC1,103.2
Cc1ccc2c(c1)c(-c1ccccc1)c(-c1ccccc1)n2CC(O)CNCCc1ccccc1 (configuration not stated),111.0
CCCCNC(=O)CSc1nc(N2CCc3ccccc3C2)nc2ccccc12,103.8
CSc1ccc(C2C=C(c3cccs3)Nc3ncnn32)cc1 (configuration not stated),-22.3*
CCSc1nnc(-c2nn(C)c3c2CN(S(=O)(=O)c2ccc(OC)cc2)CC3)n1CC,101.0
COCCCNC(=O)CSc1nc2ccccc2nc1Cc1ccc(C)cc1,108.3
CS(=O)(=O)c1sc2nc(-c3cccs3)cc(-c3ccccc3)c2c1N,108.3
COC(=O)c1ccc2nc(NC(=O)CSc3nc4ccccc4[nH]3)sc2c1,136.3
CCc1nnc2ccc(N3CCN(C(C)C)CC3)nn12,100.1
O=C(NC1CCCc2ccccc21)c1ccc(-c2cccc(F)c2)nc1 (configuration not stated),107.3
N#CC1=C(N)N(c2ccccc2C(F)(F)F)C2=C(C(=O)CCC2)C1c1ccc2c(c1)OCO2 (configuration not stated),108.4
Cc1ccc(C)c(CNS(=O)(=O)c2c(C)sc(C)c2-c2n[nH]c(C)c2C)c1,102.6
O=C(COC(=O)c1cc2c3c(c1)C1C=CCC1CN3CC1CC=CC21)c1ccc(Br)cc1 (configuration not stated),110.3
COc1ccc(/C=C2\C=C(c3ccccc3)N(c3ccc(F)cc3)C2=O)cc1Br,177.6
Clc1ccc(CN2C3=NCCN3c3ccccc32)cc1Cl,107.4
Cc1sc2c(c1C)c(=O)n(-c1ccccc1)c1nnc(SC(C)C)n21,115.6
Cc1cccc(Oc2ccc(-c3noc(CNS(=O)(=O)c4ccccc4)n3)cc2)c1,101.4
CC1(C)OC2OC(C(=O)NCCCCCC(=O)OCc3ccccc3)C3OC(C)(C)OC3C2O1 (configuration not stated),97.1
NS(=O)(=O)c1ccc(CCn2c(-c3ccc(C4CCCCC4)cc3)csc2=Nc2ccccc2)cc1,109.6
Cc1ccc(COCc2nn(C)c3c2CN(S(=O)(=O)c2ccc(C(C)(C)C)cc2)CC3)cc1,101.1
Cc1nnc(-c2ccc(S(=O)(=O)N3CCCC(C)C3)o2)o1 (configuration not stated),103.5
CCN(CC)S(=O)(=O)c1cccc(C(=O)N2CCN(C(=O)c3cccc(S(=O)(=O)N(CC)CC)c3)CC2)c1,110.5
Cc1ccc(S(=O)(=O)NCc2ccc(-c3nn4c(C)nnc4s3)cc2)cc1,103.4
Cc1ccc(CN2C=NS(=O)(=O)c3ccccc32)cc1,108.8
COC(=O)C1=C(C)NC(C)=C(C(=O)OC)C1c1cn(-c2ccccc2)nc1-c1cccc([N+](=O)[O-])c1,102.2
Cc1ccccc1N1CC(O)(c2ccccc2)[N+]2=C1SCC2 (configuration not stated),101.2

Later entries:
Structure,GIV-Gai inh
CCOC(=O)c1ccccc1NC(=O)c1sc2nc(C)nc(N3CCC(C)CC3)c2c1C,106.3
CCOc1ccc(NC(=O)c2ccc3c(=O)n(-c4ccc(OC)cc4OC)c(=S)[nH]c3c2)cc1,98.8
CCCN1C(=O)c2ccccc2Sc2cc(-c3noc(/C=C/c4ccccc4)n3)ccc21,97.3
CCOc1ccc(N2C(=O)/C(=C\C=C\c3ccccc3OC)S(=O)(=O)C2c2cccc([N+](=O)[O-])c2)cc1 (configuration not stated),108.6
Cc1oc(-c2ccccc2)nc1Cn1nnc(-c2nc(-c3ccc(Br)cc3)no2)c1C,106.2
COc1ccc(C2CC(c3cccs3)=NN2C(=O)CSc2cn(C)c3ccccc23)cc1 (configuration not stated),104.3
Cc1cccc(NC(=O)c2sc3nc4c(cc3c2N)C(=O)CC(C)(C)C4)c1,100.5
O=C1Nc2ccccc2Oc2cc(Oc3ccccc3)c(S(=O)(=O)N3CCOCC3)cc21,104.7
CC1CC(C)CN(c2nc(-c3ccccc3O)nc3ccccc23)C1 (configuration not stated),99.7
O=C(COc1ccccc1)NC(c1ccc([N+](=O)[O-])cc1)c1cc(Cl)c2cccnc2c1O (configuration not stated),119.0
Oc1ccc(C2Nc3ccccc3C(c3ccccc3)(c3ccccc3)O2)cc1O (configuration not stated),103.8
CC1CCN(S(=O)(=O)c2ccc3c(c2)C(=O)c2cc(S(=O)(=O)N4CCC(C)CC4)ccc2-3)CC1,102.5
O=C(O)c1cc(N2C(=O)/C(=C/c3ccc([N+](=O)[O-])cc3)C=C2c2ccccc2)ccc1Cl,112.3
COc1ccc(NS(=O)(=O)c2cc(-c3cc(C(F)(F)F)on3)sc2C)cc1Cl,97.6
CC(C)CCNS(=O)(=O)c1ccccc1-c1nc(-c2ccccc2)no1,109.5
NNc1nc2c(c(=O)n1Cc1ccccc1)C1(CCCCC1)Cc1ccccc1-2,104.9
COc1cc(Br)c(C2CC(=O)Nc3c2ccc2ccccc32)cc1OC (configuration not stated),113.4
Cc1noc(C)c1C1CCCN1Cc1cccc(OCc2ccccc2)c1 (configuration not stated),97.6
Cc1ccc(C(=O)[C@@H]2[C@@H](c3ccccc3F)C(C#N)(C#N)[C@H]3C=Cc4ccccc4N23)cc1,109.3
Cc1ccc(S(=O)(=O)N2CCN(S(=O)(=O)c3ccccc3)C2c2ccccc2)cc1 (configuration not stated),109.7
c1cc(-c2nc3c(c(NCCCN4CCOCC4)n2)CCC3)ccn1,99.1
CCOc1ccc2nc(-n3nc(C)c4c3NC(=O)CC4c3ccc4c(c3)OCO4)sc2c1 (configuration not stated),106.5
COC(=O)c1sc2ccc(NS(=O)(=O)c3cc(C)ccc3NC(C)=O)cc2c1OC,99.6
COc1ccc(CCNC(=O)CSc2nc3c(sc(=S)n3-c3cc(Cl)ccc3OC)c3nc4ccccc4n23)cc1OC,122.9
Cc1ccc(C2C3=C(CC(C)(C)CC3=O)Nc3ccccc3N2CC(=O)NC2CCCC2)cc1 (configuration not stated),102.9
CCCOc1ccc(CN2CCCC2c2cc(CCC)on2)cc1 (configuration not stated),101.5
CC(=O)N1CCC(C(=O)NCc2ccccc2)(N(C(=O)c2ccc(C)cc2)c2ccc(Cl)cc2F)CC1,105.9
COC(=O)c1ccc(C2Oc3ccc(Cl)cc3C3CC(c4ccc(C)o4)=NN32)cc1 (configuration not stated),107.1
Clc1ccc(-c2csc(-c3cc4cc(Cl)ccc4oc3=Nc3ccccc3)n2)cc1,106.4
CCNc1nc(C(N)=O)c(NC(=O)c2cc(-c3ccccn3)nc3ccc(Br)cc23)s1,108.4
CCOC(=O)c1ccc(Nc2c(C(=O)OCC)cnc3c2ccc2ccccc23)cc1,113.5
c1ccc2c(c1)NC(=NCc1ccc3c(c1)OCO3)C1(CCCCCC1)N2,98.2
CCOc1ccc(N2CC(O)(c3ccc(OCC)cc3)[N+]3=C2CCCC3)cc1 (configuration not stated),112.7
NS(=O)(=O)c1ccc(NC(=O)c2ccc(=O)n(Cc3cccc(F)c3)c2)cc1,110.6
CC(=O)c1ccc(NC(=O)CSc2nc3ccc(NC(=O)c4ccccc4)cc3s2)cc1,105.7
O=C(c1cccc(-c2nc(-c3ccc(F)cc3)no2)c1)N1CCOCC1,109.0
Cc1ccc(NC(=O)c2c(NC(=O)c3ccccc3Cl)sc3c2CCCCC3)cc1,113.1
O=C(NCc1cccs1)C1CC(=O)N(c2ccc3c(c2)CCN3C(=O)C2CCC2)C1 (configuration not stated),99.7
Cc1c(C(=O)N2CCC3(CC2)OCCO3)sc2ncnc(N3CCN(c4ccccc4)CC3)c12,94.4
CCC1(C)CC(CCNCc2ccc(OC)cc2)(c2ccc(C)cc2)CCO1 (configuration not stated),112.2
CC1CC(Nc2ccccc2)c2ccccc2N1C(=O)CCC1CCCCC1 (configuration not stated),107.4
N#Cc1ccc(-c2cccnc2)nc1SCC(=O)c1ccc(Cl)cc1,107.0
CC(C)Oc1ccccc1C1Nc2ccccc2NC2=C1C(=O)CC(c1ccccc1Cl)C2 (configuration not stated),104.0
COc1ccccc1NC(=O)Cn1cnc2sc(C(=O)Nc3ccc(Br)cc3C)c(C)c2c1=O,111.7
COc1ccc(-c2nn3c(=O)cc(CN4CCN(C(=O)Nc5cc(F)ccc5F)CC4)nc3s2)cc1,103.8
CCCCNC(=O)C1OC2OC3(CCCCC3)OC2C2OC3(CCCCC3)OC12 (configuration not stated),115.3
COc1ccc(N2CCN(c3nc(Nc4ccc(NC(C)=O)cc4)nc(N4CCCC4)n3)CC2)cc1,103.3
COc1ccc(-n2nnc(-c3nsc(Nc4ccc(Cl)cc4)n3)c2C)cc1,102.5
CCOC(=O)C1=C(C)NC2=C(C(=O)C(C(=O)OCC)C(c3ccccc3OC)C2)C1c1cccc(OC)c1OC (configuration not stated),102.2
Cc1ccc(S(=O)(=O)Nc2ccc(Sc3c(C)c(C)nc4ncnn34)cc2)c(C)c1,106.4

The listing continues.
Structure,GIV-Gai inh
CCC(C(=O)Nc1ccc(S(=O)(=O)Nc2nc(C)cc(C)n2)cc1)(C(F)(F)F)C(F)(F)F,109.8
CCc1nc(C(C)C)n2c(=O)n(CC#N)nc2c1C,101.3
CCOC(=O)Nc1ccc2c(c1)N(C(=O)CN)c1ccccc1CC2,113.2
Cc1nc(CNC(=O)[C@H]2CCCN2S(=O)(=O)c2ccc(C(C)(C)C)cc2)cs1,100.5
CCOC(=O)C1=C(C)N=c2s/c(=C/c3ccc(N(CC)CC)o3)c(=O)n2C1c1ccc(OC)cc1 (configuration not stated),120.6
Cc1noc2ncnc(NCCN(C)C3CCCCC3)c12,106.3
CC(C)CCn1c(=S)[nH]c2ncccc2c1=O,102.2
c1cn(-c2cc(N3CCCC3)ncn2)cn1,101.3
Cn1c(=O)c2c(SCC(=O)NCC3CCCO3)nc(C3CCCCC3)nc2n(C)c1=O (configuration not stated),101.4
COC(=O)c1cccc(NC(=O)Nc2cccc(-c3nnc(-c4ccccc4)o3)c2)c1,104.7
COC(=O)C1=C(C(=O)OC)SC2(S1)C(C(=O)OC)=C(C(=O)OC)SC1=C2c2ccccc2N(C(=O)Cc2ccccc2)C1(C)C,111.9
